# Mtb hypoxia rep – Mtb hypoxia fluorescent reporter inhibition. fluorescence inhibition, % (no concentration beside the values). 300,000 compounds, 0.1% hits. M. tuberculosis hypoxia-regulated fluorescent reporter, fluorescence. AID 1159583;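 active means 35 to 45% if threefold the growth effect, above 45% if 1.5-fold the growth effect; inactive means the rest, general growth blockers included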;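 further: wells of about 50 µL received 100 nL stock; 0% = vehicle wells and 100% = reference inhibitor wells; whole bacteria with a GFP reporter of the hypoxia response; strong numbers were not always called active; many hits fall short of the cut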
# Sa ugtP lethal – compounds lethal to S. aureus RN4220 ugtP deletion mutant; OD600 growth, 16 h; some inactives read as strong as hits; growth inhibition, % (concentration not given with the values); 330,000 compounds, 0.54% hits; AID 1259309;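 active means z-score under -3 and OD600 up to 0.15 on both plates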;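 further: plate controls were untreated wells for no effect and antibiotic for full effect; wells of about 80 µL received 100 nL stock; the first replicate is given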
# Sa RN4220 lethal – kills Staphylococcus aureus RN4220; 330,000 compounds, 0.33% hits; inhibition, % (test concentration not listed); S. aureus RN4220 growth, OD600, 16 h;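 active means z-score of -3 or lower and OD600 up to 0.18 on both plates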;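 further: plate controls were untreated cells for no effect and reference antibiotic for full effect; stock transfer was 100 nL into about 80 µL; one replicate is shown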
# Autofluor counter – compound fluorescence in toxin protease inhibitor counterscreen; 360,000 compounds, 3.1% hits; AID 624483; compound autofluorescence counterscreen, microsphere flow cytometry; hits give high values; fluorescence intensity (concentration not given with the values);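 active means at least 3 SD above the mean of all compounds, about 16000 in these data; inconclusive means too few beads counted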;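 further: 100 nL of 1 mM stock went into each well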
# PrP 5UTR inh – suppresses PrP 5' UTR mRNA reporter expression | cell-based PrP 5' UTR mRNA reporter, plate reader | inhibition, % (no concentration beside the values) | 340,000 compounds, 0.35% hits | AID 488862;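 active means every replicate at 50% or more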;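 further: 0 = median of the neutral control wells; tested in H4 reporter cells; numbers are from one replicate; inactives centre near -14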
# BJeLR viability – kills HRASV12-expressing BJeLR cells; BJeLR (HRASV12) viability, CellTiter-Glo ATP luminescence, 48 h; reference of the scale not given here; inhibition, % (no concentration beside the values); 300,000 compounds, 0.17% hits; AID 1554;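 active means replicate mean above 50%; inconclusive means above 50% but judged a plate artefact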;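 further: 50 nL library stock added to about 25 µL; numbers are from one replicate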
# Mtb hypoxia rep growth – recorded beside Mtb hypoxia rep, whose call it bears; growth inhibition, %; measured here: M. tuberculosis growth (absorbance);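 0% = vehicle and 100% = reference antibiotic; read after six days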
# An asterisk follows results filed as active; ? = inconclusive; nt = not tested or not shown.
SMILES,Mtb hypoxia rep,Mtb hypoxia rep growth,Sa ugtP lethal,Sa RN4220 lethal,Autofluor counter,PrP 5UTR inh,BJeLR viability
COCCC(=O)N1CCC(Oc2ccc(C(=O)N3C[C@@H](C)O[C@@H](C)C3)cc2)CC1,-1,2,0,1.1,5747,-21,-10
CCN(C(=O)CSc1nc2ccccc2[nH]1)C1CCS(=O)(=O)C1 (centres undefined),-2,-2,1,1.4,5741,-15,nt
Cc1ccccc1-n1c(C)c(C#N)c(=O)c(-[n+]2ccccc2)c1[S-],0,6,4,0.3,5001,-28,6
O=C(C1CCN(S(=O)(=O)c2cccs2)CC1)N1CCN(c2ccccc2O)CC1,6,7,3,1.4,6479,-1,nt
CCCC(C)C(=O)OCC(=O)Nc1ccc(Br)cc1 (centres undefined),18,3,-6,2.2,nt,nt,-3
O=C(C1CCN(C2CCN(Cc3ccc4cc(F)ccc4n3)CC2)CC1)N1CCCC1,-8,2,1,3.8,4923,-3,7
CC1CCCCC1NC(=O)CCCCCn1c(=S)[nH]c2ccccc2c1=O (centres undefined),8,2,5,1.6,3412,-5,-6
CC(C)(C)n1nnnc1C(c1ccc(C(F)(F)F)cc1)N(Cc1ccc(F)cc1)Cc1ccco1 (centres undefined),8,9,-10,-7.5,2889,-25,-2
COc1cc(/C=C/C(=O)O)cc(S(=O)(=O)Nc2ccccc2C(=O)NCCc2ccccc2)c1OC,-6,-11,-1,0.1,4951,-40,-11
COc1ccc(Br)cc1/C=C/C(=O)Nc1c(C)cccc1C,-2,7,-7,4.7,10126,-30,-3
COc1ccc2oc(=O)c(/C(C)=N/Nc3ccccc3)cc2c1,nt,nt,nt,nt,2097,6,-7
CCOc1ccccc1NC(=O)NCCC1=CCCCC1,4,5,5,10,1920,-4,-7
O=C(Nc1cccc2ccccc12)N1CCC2(CC1)OCCO2,11,15,0,-0.7,2083,-11,2
O=C(O)CC(c1cccc([N+](=O)[O-])c1)N1Cc2ccccc2C1=O (centres undefined),-3,6,3,2.0,2205,-8,-8
CCOc1cc2[nH]c(=S)n(CCCN3CCCC3=O)c(=O)c2cc1OCC,4,18,10,2.1,5797,-15,-3
O=C(O)C(Cc1ccc(O)cc1)N1C(=O)c2ccccc2C1=O (centres undefined),-1,5,-1,-1.0,3325,-13,-12
CCOc1ccc(NC(=O)c2nc(SCC)ncc2Cl)cc1,6,0,9,4.2,2909,-8,1
CCOc1ccc(N2CC(C(=O)N3CCN(C(=O)c4ccco4)CC3)CC2=O)cc1 (centres undefined),-12,-5,5,-2.0,3620,-3,12
COC(=O)CC1SC(=O)NC1=Nc1cccc(C)c1 (centres undefined),nt,nt,-3,2.2,2749,-10,-1
O=C(C[n+]1cccc(C=NO)c1)N1CCCc2ccccc21,-3,5,6,-1.2,nt,nt,nt
COc1cccc(NC(=O)COc2coc(CN3CCc4ccccc4C3)cc2=O)c1,7,-1,1,2.2,?,-3,5
Cc1cc([N+](=O)[O-])cc(C)c1OCC(=O)NN=Cc1ccc(OC(=O)c2ccccc2Br)cc1,5,7,-1,0.2,nt,nt,nt
CC1(C)Cc2c(cnn2-c2cccc(F)c2)C(NC(=O)c2ccc[n+]([O-])c2)C1 (centres undefined),6,-5,2,2.6,12606,-12,-1
Nc1ccc2c(c1)Cc1cc([N+](=O)[O-])ccc1-2,nt,nt,nt,nt,3385,-37,0
Cc1ccc(NC(=O)C2CCN(C(=O)c3ccco3)CC2)cc1C,-3,-8,5,4.4,4500,-10,-1

# Three entries from above, sorted by number of heavy atoms, high to low.
SMILES,Mtb hypoxia rep,Mtb hypoxia rep growth,Sa ugtP lethal,Sa RN4220 lethal,Autofluor counter,PrP 5UTR inh,BJeLR viability
Cc1cc([N+](=O)[O-])cc(C)c1OCC(=O)NN=Cc1ccc(OC(=O)c2ccccc2Br)cc1,5,7,-1,0.2,nt,nt,nt
CC1CCCCC1NC(=O)CCCCCn1c(=S)[nH]c2ccccc2c1=O (centres undefined),8,2,5,1.6,3412,-5,-6
Cc1ccc(NC(=O)C2CCN(C(=O)c3ccco3)CC2)cc1C,-3,-8,5,4.4,4500,-10,-1

# Further entries:
SMILES,Mtb hypoxia rep,Mtb hypoxia rep growth,Sa ugtP lethal,Sa RN4220 lethal,Autofluor counter,PrP 5UTR inh,BJeLR viability
COc1cc(/C=C/C(=O)OCC(=O)N2c3ccccc3CC2C)cc(OC)c1OC (centres undefined),3,3,7,2.5,3776,-33,nt
COCCSc1nnc(NS(=O)(=O)c2ccccc2)s1,-4,12,-3,1.9,2652,-24,7
CSc1ccc(Cl)c(C(=O)OCC(=O)N(C)CCC#N)c1,14,5,3,6.3,4856,-7,-7
Cc1cccc(-n2nnnc2SCC(=O)NCC2(N3CCOCC3)CCCCC2)c1C,4,10,3,1.1,3864,-9,nt
CC12CCC(c3c(C(=O)O)nn(-c4ccc(F)cc4)c31)C2(C)C (centres undefined),nt,nt,9,2.8,4584,-1,7
CC(C)(C)c1ccc(C(=O)NCCN2CCOCC2)cc1,4,7,4,1.6,3801,-25,2
Nc1c(C(=O)Nc2ccccc2Cl)nnn1-c1ccc2c(c1)OCCO2,4,6,-6,0.5,3485,-84,6
CN(C)S(=O)(=O)c1cccc(NC(=S)NN=Cc2cccc(O)c2)c1,8,5,1,10,nt,nt,nt
CCOc1cc(/C=N/N=C2/NC(=O)C(CC(=O)O)S2)ccc1OCc1ccc(Cl)cc1 (centres undefined),nt,nt,nt,nt,2596,-21,-1
NC(=O)c1ccc(NC(=O)CSc2nnc(-c3ccc4c(c3)OCO4)o2)cc1,-3,1,-3,8.7,3974,-23,nt
O=C(c1ccc(-n2cncn2)c([N+](=O)[O-])c1)N1CCN(S(=O)(=O)c2ccc(Br)cc2)CC1,7,4,14,6.5,nt,-16,0
COc1ccc(-c2cnc3nc(N=CN(C)C)nn3c2N=CN(C)C)cc1,11,-9,8,4.1,nt,nt,nt
Cc1nc2nc(COc3ccccc3)[nH]n2c(=O)c1Cc1ccccc1,-1,1,-2,-1.4,9292,-7,-1
COc1ccc(-c2nc(CN(Cc3cnn(C)c3)C(C)C)c(C)o2)c(OC)c1,5,10,5,0.9,2857,2,-13
Cc1cccc2nc(CSc3ccccc3N)cn12,3,3,7,-7.1,2373,-80,6
CCOC(=O)C(CC)/C(C)=N\NC(=O)c1ccccc1O (centres undefined),nt,nt,nt,nt,1984,20,-6
COc1ccccc1N1CCN(C(=O)Cn2nnc(-c3cccs3)n2)CC1,-2,3,1,-5.1,9007,4,-16
O=C1NC(=O)N(Cc2ccccc2)C(=O)/C1=C\N1CCCc2ccccc21,6,2,0,4.0,2364,-13,-6
CC1=NN(C(=O)Cn2nc([N+](=O)[O-])cc2C)C(O)(C(F)(F)F)C1 (centres undefined),14,1,3,6.4,2597,-55,-11
Cc1c(NC(=O)CSCc2ccccc2)cccc1C(=O)O,3,1,10,2.2,3391,-25,2
CCCCCCCCCC(=O)Nn1cnc2ccccc2c1=O,-1,-3,-21,0.6,2648,-27,4
COCCNC(=O)CSc1ccccc1C(=O)NCC1CCCCC1,12,6,4,-0.6,4165,-22,-9
Cc1cc(C)n(-c2nc3ccccc3c(=O)n2OCC(=O)Nc2c(C)cccc2C)n1,nt,nt,-4,1.3,4782,0,-8
COc1ccc(C(=O)Nc2cccc(N(C)S(C)(=O)=O)c2)cc1OC,12,1,8,2.4,7180,-44,-7
COc1ccc(/C=C/c2nnc(NC(=O)C(C)C)s2)cc1,7,2,-8,2.9,3666,-23,-5

# (next part)
SMILES,Mtb hypoxia rep,Mtb hypoxia rep growth,Sa ugtP lethal,Sa RN4220 lethal,Autofluor counter,PrP 5UTR inh,BJeLR viability
O=C(Cc1ccccc1)N1CCN(C2CCCCCC2)CC1,1,-5,-5,4.5,5021,-25,-2
Cc1c(Cl)cccc1N1C(=O)CC(N(O)c2ccccc2)C1=O (centres undefined),6,7,-5,-3.5,8820,-13,6
CCOc1ccccc1CNC(=O)CCNS(=O)(=O)c1ccc2[nH]c(=O)oc2c1,4,1,7,-1.4,6730,-17,13
CCN(CC(=O)NCc1ccncc1)S(=O)(=O)c1ccc(OC)cc1,5,2,1,0.1,3570,-29,-5
O=C(c1cc(COc2ccc(F)cc2Cl)on1)N1CCSCC1,5,3,3,2.8,6043,-98,-8
CC(=O)NC(CC(=O)OCC(=O)N1CCN(S(=O)(=O)c2ccc(Cl)cc2)CC1)c1ccccc1 (centres undefined),3,-2,4,0.3,5544,-19,-6
O=C(c1ccco1)N1N=C(c2ccc(Cl)cc2)CC1(O)C(F)(F)F (centres undefined),-3,2,-23,4.9,4226,-24,5
CCOC(=O)C1CCN(C(=O)c2cccs2)CC1,5,0,-2,3.4,1989,-8,0
Cn1c(SCC(=O)N2CCOCC2)nc2cccnc21,nt,nt,5,-0.1,5606,-26,8
Cc1ccc2oc(C(=O)NC3CCS(=O)(=O)C3)cc(=O)c2c1 (centres undefined),-4,1,-1,-0.5,5358,-12,5
CCOC(=O)Cc1nnc(Nc2cccc(O)c2)c2ccccc12,16,6,-2,7.7,3814,-4,10
CCOC(=O)N1CCN(C(=O)CS(=O)(=O)c2cn(Cc3ccc(Cl)cc3)c3ccccc23)CC1,3,15,-18,-8.3,4313,-7,-2
COc1cccc(CN(C)C(=O)C2CCN(S(=O)(=O)c3ccc(C)cc3)CC2)c1OC,-2,-14,4,3.9,4134,13,nt
CN(Cc1ccco1)C(=O)c1ccc(OC2CCN(Cc3ccccn3)CC2)cc1,0,8,1,-0.5,5326,2,8
COc1ccc(CCNC(=O)NS(=O)(=O)c2ccc(C)cc2)cc1OC,14,1,17,-0.5,3707,-8,1
CN(C1CCCCC1)S(=O)(=O)c1ccc(S(=O)(=O)N2CCN(C(=O)c3ccccc3F)CC2)cc1,-4,7,9,0.2,9106,-1,1
O=C(COC(=O)CN1C(=O)C2CCCCC2C1=O)Nc1cc(F)ccc1F (centres undefined),-8,-6,7,3.1,4859,-23,nt
CCCC(c1nnnn1CCc1ccccc1)N1CCC(C(N)=O)CC1 (centres undefined),10,0,5,8.1,6408,-26,9
COC(=O)[C@@]1(Cc2ccc(OC)cc2)C2c3cc(C(=O)N(C)C)n(Cc4ccc(OC(F)(F)F)cc4)c3CC2CN1C(=O)c1ccccc1 (some centres undefined),-2,-1,37,28,nt,nt,nt
O=C(COC(=O)c1cn(-c2ccccc2)nc1-c1ccc(F)cc1)Nc1ncc(Cl)cc1Cl,-10,-3,-24,-0.9,2092,-8,3
CC(=O)CC1c2ccccc2S(=O)(=O)N1C1CCCC1 (centres undefined),20,10,1,5.7,nt,nt,nt
COc1ccc(OCc2nnc(SCC(N)=O)n2N)cc1,6,4,-3,1.1,2892,-96,4
O=[N+]([O-])c1ccc(Oc2ccc(C(F)(F)F)cn2)cc1,10,11,9,-0.8,2567,-31,-1
O=C(CN1C(=O)NC2(CCOc3ccccc32)C1=O)c1ccc[nH]1 (centres undefined),-6,6,-1,1.1,6512,7,-13
Cc1ccc(NC(=O)C(=O)NCCc2c[nH]c3ccccc23)cc1C,9,4,10,3.4,4228,2,0

# The final 5 entries of the part before are carried over, then new ones follow:
SMILES,Mtb hypoxia rep,Mtb hypoxia rep growth,Sa ugtP lethal,Sa RN4220 lethal,Autofluor counter,PrP 5UTR inh,BJeLR viability
CC(=O)CC1c2ccccc2S(=O)(=O)N1C1CCCC1 (centres undefined),20,10,1,5.7,nt,nt,nt
COc1ccc(OCc2nnc(SCC(N)=O)n2N)cc1,6,4,-3,1.1,2892,-96,4
O=[N+]([O-])c1ccc(Oc2ccc(C(F)(F)F)cn2)cc1,10,11,9,-0.8,2567,-31,-1
O=C(CN1C(=O)NC2(CCOc3ccccc32)C1=O)c1ccc[nH]1 (centres undefined),-6,6,-1,1.1,6512,7,-13
Cc1ccc(NC(=O)C(=O)NCCc2c[nH]c3ccccc23)cc1C,9,4,10,3.4,4228,2,0
Nc1ccc(-c2cnc(-c3ccc(N)cc3)nc2)cc1,11,-1,-5,1.6,9408,-8,4
CCCN(CC1CC1)CC(O)c1ccccc1 (centres undefined),7,9,5,2.4,3504,-30,2
O=C(O)CC(c1ccccc1)N1C(=O)c2ccccc2C1=O (centres undefined),1,9,-1,2.9,4210,-2,-8
COc1ccc(Cc2n[nH]c(=S)n2-c2ccc3c(c2)OCCO3)cc1,4,-1,0,2.0,4094,25,1
CCOC(=O)NN=Cc1ccc(Oc2ccccc2)cc1,1,4,-8,-2.8,nt,nt,nt
CC(CC(=O)Nc1ccc([N+](=O)[O-])cc1)=NNC(=O)C1C2CCCCC21 (centres undefined),11,1,7,2.6,nt,nt,nt
O=C1c2cccc3cccc(c23)C(=O)C1(O)O,12,13,39,3.1,3839,-29,3

# Assay outcomes: PubChem, several laboratories
